Vaccinia mCherry = vaccinia inhibition (mCherry reporter); AID 720579; 310,000 tested, 0.63% active; Vaccinia virus mCherry reporter infection, fluorescence; about a quarter of the inactives have no number; Potency, µM (series often up to 36.5 µM), without a hit: top-dose activity change, negative = inhibition, usual class: inhibitors; active = well fitted inhibition curve with a large enough effect; inconclusive = small, poorly fitted or top-dose-only effect; inactive = no such curve, though single readings can be large or run the other way; tested in A549 cells; further: nearly all actives have a fitted effect of over 35% in size; inactives centre near -10
Vaccinia Venus = vaccinia inhibition (Venus reporter). Potency, µM (titrated, usually from 36.5 µM), inactives show top-dose activity change, negative = inhibition, actives largely listed as inhibitors. AID 720580. Vaccinia virus Venus reporter expression, fluorescence. 330,000 tested, 0.46% active; active means well fitted inhibition curve with a large enough effect; inconclusive means small, poorly fitted or top-dose-only effect; inactive means no such curve, though single readings can be large or run the other way; tested in A549 cells; further: nearly all actives have a fitted effect of over 30% in size; inactives centre near -10
The depositor's hits bear a star; i = inactive; ? = inconclusive; / = no result given; [ ] = remark or other dose. On the % scale 0 is the no-effect control and ±100 the full control effect; potency means the concentration at half of the fitted maximal effect.

SMILES	Vaccinia mCherry	Vaccinia Venus
O=C(CNC(=O)c1ccc(Cl)cc1Cl)OCC(=O)N1CCN(c2ccccc2)CC1	0%	-12%
CCn1c(=S)[nH]c2scc(-c3cccs3)c2c1=O	-4%	-18%
COc1ccc(-c2csc(Nc3ncccc3C)n2)cc1	-9%	?
Cc1nc2ccc(-c3nc4ccccc4o3)cc2[nH]1	-15%	-9%
COc1ccc(NC(=O)C2CCN(C(=O)c3sc4nc[nH]c(=O)c4c3C)CC2)cc1Cl	i	-9%
O=C(c1ccc(O)cc1)c1ccc(C(=O)c2ccc(O)cc2)cc1	?	-28%
COC(=O)C1CSC(C(=O)OC)N1C(=O)Nc1ccc(Cl)cc1 (configuration not stated)	/	?
C=CCOC(=O)c1c(C)nc2cc3c(cc2c1C)OCO3	-10%	-11%
COc1ccc2oc(C(=O)OCC(=O)NCc3ccc(OC)c(OC)c3)c(C)c2c1	i	-4%
CN(C)c1ccc(CN(C(=O)c2ccc(Cl)c([N+](=O)[O-])c2)C2CCS(=O)(=O)C2)cc1 (configuration not stated)	-15%	-9%
COc1cc(Cl)c(CNC[C@H]2O[C@@H](n3cnc4c(N)ncnc43)[C@H](O)[C@@H]2O)c(Cl)c1O	?	-15%
COc1ccccc1CNc1nc(S(=O)(=O)c2ccccc2)c(Cl)s1	0%	-10%
C=CCOc1ccccc1CN1CCN(CCc2ccccc2)C(CCO)C1 (configuration not stated)	i	-11%
O=C(c1ccc2c(c1)ncn2C1CCCCC1)N1CCC2(CC1)OCCO2	/	?
COc1ccccc1CC(=O)N1CCN(c2ccccn2)CC1	/	?
COc1ccc(CNC(=O)CN(CC2CCCO2)C(=O)CNS(=O)(=O)c2ccccc2)cc1 (configuration not stated)	/	-15%
COC(=O)C1CCN(C(=O)C2CC(=O)N(c3ccc(C)c(Cl)c3)C2)CC1 (configuration not stated)	-20%	-14%
COC(=O)/C(=C/Nc1ccc(O)cc1)[N+](=O)[O-]	11%	5%
CC[N+](C)(CC)CCC/C(=N/O)C(O)(c1ccccc1)c1ccccc1	i	0%
O=C(COc1ncnc2scc(-c3ccc(F)cc3)c12)NCc1ccco1	/	?
Cc1nnc(SCCn2c(N3CCCC(C)C3)nc3c2c(=O)n(C)c(=O)n3C)s1 (configuration not stated)	-2%	10%
O=C(Nc1ccc(Cl)cc1)OCc1cn(-c2ccccc2)nn1	i	-14%
CC(=NNC(=S)N1CC2CCC(CC2)C1)c1ccccn1	?	?
O=C(O)c1nnn(-c2cc(C(F)(F)F)cc(C(F)(F)F)c2)c1-c1ccccc1	i	-6%
Cc1nn(-c2ccccc2)c(C)c1NC(=O)COC(=O)Cc1ccccc1F	i	-13%
CC(=O)Nc1ccc(S(=O)(=O)NNC(=O)COc2ccc(C)cc2)cc1	-15%	-8%
O=C(C1CCCN(S(=O)(=O)c2ccccc2)C1)N1CCCCCC1 (configuration not stated)	i	-8%
COc1ccc(N(CC(=O)Nc2ccc3c(c2)OCO3)S(=O)(=O)c2ccc(F)cc2)cc1	-18%	-16%
O=C(c1ccco1)N1CCN(C(=O)N2CCCC2)CC1	-8%	4%
C=CCOc1ccc(C2C(C(=O)c3ccco3)=C(O)C(=O)N2c2nnc(C)s2)cc1 (configuration not stated)	-19%	-8%
O=C(Cc1ccc(F)cc1)OCN1C(=O)c2ccccc2C1=O	0%	-14%
O=C(Nc1ccc(Cl)cc1)C1CCN(S(=O)(=O)c2ccc(Br)s2)CC1	-25%	-14%
COc1ccc(C(C(=O)Nc2c(C)cccc2C)N2CCN(c3ccc(C)cc3)CC2)cc1 (configuration not stated)	-24%	-3%
CCN(CC(=O)Nc1ccc(N2CCOCC2)cc1)CC(=O)NC(C)(C)C	i	-1%
Cc1ccc(NC(=O)CN(C)C(=O)COC(=O)CNS(=O)(=O)c2ccc(Br)cc2Cl)cc1	-9%	-4%
CCOC(=O)c1cccc(NC(=O)c2ccc3nc(C(C)C)oc3c2)c1	-17%	-13%
CCN1CCN(C(c2ccccc2F)c2c(O)cc(C)n(CCOC)c2=O)CC1 (configuration not stated)	-3%	-1%
O=C(CN1CCCCC1)Nc1cccc([N+](=O)[O-])c1	-4%	-5%
COc1ccc(C(=O)NCc2nnc(SCC(=O)Nc3ccc(F)cc3)n2-c2ccccc2)cc1	0%	-11%
O=C(NC1(C(F)(F)F)NC(=O)N(Cc2ccco2)C1=O)c1cccnc1 (configuration not stated)	/	-6%
COc1ccccc1OCCC(=O)OCC(=O)c1c(N)n(C)c(=O)n(C)c1=O	i	-15%
CCCc1cc2c(cc1NC(=O)c1ccc(C(C)(C)C)cc1)OCO2	i	-14%
COc1ccc(C(=NNc2ccccc2C(=O)O)c2ccc(OC)cc2)cc1	-26%	-12%
COc1ccc(OC)c(NC(=O)NNC(=O)COc2ccc(-c3ccccc3)cc2)c1	-15%	-21%
CCCCNC(=O)C1C(c2ccccc2)=Nc2ccccc2N1C(=O)c1ccc2c(c1)OCO2 (configuration not stated)	?	-16%
CC1S/C(=N\N=C\c2cccc([N+](=O)[O-])c2)N(C(C)(C)C)C1=O (configuration not stated)	-11%[7.34 µM]	-9%[7.34 µM]
CN(C)c1ccc(C=NCCC2(c3ccccc3)CCOC(C)(C)C2)cc1 (configuration not stated)	-26%	-5%
COc1cccc(CNC(=O)c2cc(-c3ccc(Cl)s3)nc3ccccc23)c1	-19%	-14%

Single records (already shown). Screens in order: Vaccinia mCherry	Vaccinia Venus
Listed for O=C(c1ccco1)N1CCN(C(=O)N2CCCC2)CC1 → -8%	4%
Listed for COc1cccc(CNC(=O)c2cc(-c3ccc(Cl)s3)nc3ccccc23)c1 → -19%	-14%

Next section:
SMILES	Vaccinia mCherry	Vaccinia Venus
Cc1[nH]c(=O)[nH]c(=O)c1S(=O)(=O)N1CCCC(C(=O)NCCc2ccc(Cl)cc2)C1 (configuration not stated)	/	-9%
COc1cccc(C(=O)Oc2cc(-c3ccccc3)no2)c1	/	10%
Cc1ccc(OC(=O)c2ccc3c(=O)n4c(nc3c2)CCC4)cc1	-4%	7%
Cc1ccc(S(=O)(=O)NC(CC(=O)NC2CCCC2)c2ccco2)cc1 (configuration not stated)	/	-20%
COC(=O)C[C@H]1N(S(=O)(=O)c2ccc(C)cc2)C(C(C)C)CC1(C(=O)OC)C(=O)OC (some centres not stated)	i	-19%
Cc1cccc(N(CC(=O)Nc2ccc(-c3nc4ccc(C)cc4s3)cc2)S(C)(=O)=O)c1	/	?
c1ccc2oc(SCc3cn4ccsc4n3)nc2c1	-5%	-2%
O=c1/c(=C/c2ccccc2)sc2nnc(-c3cccs3)n12	-13%	0%
CCOc1ccc(C(=O)/C=C/Nc2ccc(S(=O)(=O)N=C(N)N)cc2)cc1	-1%	1%
CC(C)=C1C2CCC1C1C(=O)N(NC(=O)COc3ccc(Cl)c(C)c3)C(=O)C21 (configuration not stated)	-10%	-13%
CCCN(CC(=O)Nc1ccccc1OC)C(=O)c1ccc(=O)[nH]c1	-27%	-8%
CC(c1ccccc1C(=O)O)c1cc(F)cc2ccccc12 (configuration not stated)	-30%	-9%
CC(CCc1ccccc1)NC(=O)COc1cc(F)ccc1[N+](=O)[O-] (configuration not stated)	-13%	-21%
COc1ccc(NC(=O)CSc2sc3c(O)cc(=O)[nH]c3c2C#N)c(OC)c1	12%	5%
Cc1ccc(C)c(C(=O)Cn2ncc(Cl)c(Cl)c2=O)c1	-21%	?
Cc1ccc(-n2nc(C)c3c(C(=O)NCCc4ccccc4)cc(C)nc32)cc1	-13%	-18%
COc1cccc(OC)c1OCCN1CCC(C(=O)NC(c2ccc3c(c2)OCO3)c2ccccn2)CC1 (configuration not stated)	12%	-19%
COC(=O)c1ccc2nc(-c3ccccc3)c(Cc3cccc(F)c3)n2c1	-11%	8%
CC[C@]12c3[nH]c4ccc(Cl)cc4c3CCN1C(=O)[C@@H](CC(=O)NCCc1ccccn1)C[C@@H]2C(=O)N1CCN(C(=O)c2ccco2)CC1	-12%	0%
CCCCCCCCN1C(=O)[C@H](CC(=O)NCC23CC4CC(CC(C4)C2)C3)C[C@@]2(C(=O)OCC)CCC=C12	-26%	-30%
C=CCn1c(N)c(C(=O)NCC2CCCO2)sc1=S (configuration not stated)	-17%	-14%
CCNC(=O)N(C)C[C@H]1N[C@@](Cc2ccccc2)(C(=O)OC)[C@H]2C(=O)N(C)C(=O)[C@@H]12	-5%	-10%
CCOC(=O)[C@H]1[C@H]2COc3ccc(C)cc3[C@@H]2N2C(=O)[C@@H](CO)NC(=O)[C@@]12C	-3%	-14%
Cc1nn(CC#N)c(=O)n1-c1ccc(C(C)C)cc1	i	-8%
Cc1ccc(N2C(=O)/C(=C/N3CCN(C(=O)c4ccco4)CC3)C(=O)NC2=S)cc1C	/	0%
CCN(CC)S(=O)(=O)c1ccc(N2CCCCC2)c(NC(=O)c2ccncc2)c1	-10%	-11%
CCCC(=O)NCCCc1nc2ccccc2n1CC	-12%	-3%
CCOC(=O)N1CCC(NS(=O)(=O)c2ccc(C#N)cc2)CC1	0%	-7%
Cc1cccc(CNC(=O)Cn2ccc3cc(S(=O)(=O)N4CCC(C)CC4)ccc32)c1	-7%	-3%
CCCc1nc2c(C)cc(Br)cn2c1Cc1ccc(C)cc1	20%	7%
Cc1ccc2oc(=O)ccc2c1	i	-6%
Cc1ccc(-c2nnn(CC(=O)Nc3cccc4c3CCCC4)n2)o1	-16%	-10%
COc1ccc(C)cc1N(CC(=O)NC1CCCC1)C(=O)CCC(=O)Nc1nc(C)cs1	i	-14%
Cn1ccsc1=NC(=O)c1ccc(OC(F)(F)F)cc1	-12%	-10%
COc1ccc(C(=O)NNC(=S)NC(=O)c2ccc(Cl)cc2)cc1	-21%	-4%
S=C(NCc1ccc(Cl)cc1)NC1CCCCC1	-8%	-20%
Oc1ccc(-c2nncn2-c2ccccc2)cc1	i	-4%
Nc1ccc(C(=O)OCC(=O)N2CCN(C(=O)c3ccco3)CC2)cc1[N+](=O)[O-]	-23%	-13%
CN(C)c1nc(-c2ccccc2)nnc1C(F)(F)F	/	-15%
CC(CCC(=O)Nc1nncs1)C(=O)O (configuration not stated)	-17%	5%
O=C(CCN1C(=O)C2C3CCC(C3)C2C1=O)Nc1ccc(Br)cc1 (configuration not stated)	-13%	-14%
CCN(CC)S(=O)(=O)c1ccc2c(c1)c(=O)c(C(=O)NCc1ccccc1)cn2C	-16%	-11%
O=C(Nc1ccc(Nc2ccncc2)cc1)c1ccc(Nc2ccnc3ccc([N+](=O)[O-])cc23)cc1	-3%	-8%
CCc1ccc(-n2nc3ccc(NC(=O)c4cc(Cl)c(OC)c(Cl)c4)cc3n2)cc1	-5%	-20%
CN(CC(=O)Nc1ccc(Cl)c(Cl)c1)C(=O)CNC(=O)Cc1ccccc1	-4%	-20%
CCC(=O)N1c2ccc(S(=O)(=O)NCCc3ccc(OC)c(OC)c3)cc2CC1C (configuration not stated)	-12%	-13%
O=C(CCc1nc2ccccc2s1)OCc1ccccc1	-13%	-6%
NC(=O)c1cc(Br)cc(C2CCCCC2)c1O	-9%	?
COc1ccc(NC2c3ncccc3C(=O)N2Cc2cccs2)cc1 (configuration not stated)	?	-11%
Cc1cccc(C(=O)n2nc(C)c(S(=O)(=O)N3CCOCC3)c2C)c1	-18%	-13%
C[C@H](CO)N1C[C@H](C)[C@@H](CN(C)C(=O)Nc2ccccc2)Oc2c(NC(=O)Nc3ccc4c(c3)OCO4)cccc2C1=O	3%	-9%
Cn1cnc2ncnn2c1=S	i	-7%
COCCN(CC(=O)NCc1ccc(OC)cc1)C(=O)CCC(=O)Nc1nccs1	/	-12%
Cc1cccc(NC(=O)Cn2c(=O)n(CCC(=O)NC3CCCC3)c(=O)c3ccccc32)c1	-8%	-10%
Cc1ccc(C)c(N(C)C(=O)C2CCN(S(=O)(=O)c3cccc4nsnc34)CC2)c1	-18%	1%
COC(=O)C1(C(=O)OC)C/C=C\CN(S(=O)(=O)c2ccccc2[N+](=O)[O-])CCC1	25%	6%
COc1ccc(/C(O)=C2/C(=O)C(=O)N(CCN(C)C)C2c2ccccn2)cc1OC (configuration not stated)	-2%	7%
CC(=O)NS(=O)(=O)c1ccc(NC(=O)c2cc(-c3cccs3)nc3ccccc23)cc1	-8%	-6%
COc1ccc(C(=O)NCC(=O)OCc2c(Cl)cccc2Cl)cc1OC	-8%	0%

In the list so far, these have two or more sulfur atoms:
SMILES	Vaccinia mCherry	Vaccinia Venus
CCn1c(=S)[nH]c2scc(-c3cccs3)c2c1=O	-4%	-18%
COc1ccccc1CNc1nc(S(=O)(=O)c2ccccc2)c(Cl)s1	0%	-10%
Cc1nnc(SCCn2c(N3CCCC(C)C3)nc3c2c(=O)n(C)c(=O)n3C)s1 (configuration not stated)	-2%	10%
O=C(Nc1ccc(Cl)cc1)C1CCN(S(=O)(=O)c2ccc(Br)s2)CC1	-25%	-14%
Cc1cccc(N(CC(=O)Nc2ccc(-c3nc4ccc(C)cc4s3)cc2)S(C)(=O)=O)c1	/	?
c1ccc2oc(SCc3cn4ccsc4n3)nc2c1	-5%	-2%
O=c1/c(=C/c2ccccc2)sc2nnc(-c3cccs3)n12	-13%	0%
COc1ccc(NC(=O)CSc2sc3c(O)cc(=O)[nH]c3c2C#N)c(OC)c1	12%	5%
C=CCn1c(N)c(C(=O)NCC2CCCO2)sc1=S (configuration not stated)	-17%	-14%
Cc1ccc(C)c(N(C)C(=O)C2CCN(S(=O)(=O)c3cccc4nsnc34)CC2)c1	-18%	1%
CC(=O)NS(=O)(=O)c1ccc(NC(=O)c2cc(-c3cccs3)nc3ccccc23)cc1	-8%	-6%

Hits appear at their usual frequency; any-hit rate near 0.87%.
